Compound activity as filed in PubChem.
KSHV LANA nucl: LANA-nucleosome interaction inhibition; FITC-LANA1-23 / chicken nucleosome fluorescence polarization; hits give low values; z-score (no concentration beside the values); 51,000 tested, 0.3% active; AID 720717;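 active = both repeat wells score below -2 in polarization z-score versus plate sample wells, excluding overly bright wells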;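 note: 100 nL library stock added to about 30 µL; numbers are from one replicate; some results filed as inactive read as strong as hits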
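Assay system: purified chicken nucleosomes with FITC-labelled LANA N-terminal peptide (1-23) / Probe or stimulus: 50 nM FITC-LANA1-23 probe / Compound dosing: pin-transferred compound, 100 nL / Times: compound with peptide–nucleosome mix 10–45 min at room temperature / Technique: fluorescence polarization, 480 nm excitation, 535 nm parallel and perpendicular emission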
Ab BasE inh: blocks the Acinetobacter baumannii siderophore enzyme BasE | purified BasE, fluorescence polarization binding displacement | inhibition, % (no concentration beside the values) | 84,000 tested, 0.1% active;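 active = both replicates above 25% with normal brightness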;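 note: 0% = negative plate control signal and 100% = positive plate control signal; stock transfer was 100 nL into about 30 µL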
Numbers without * were called inactive; x = not tested or not shown; & = joins results of further samples. This is a subset; count on the stated rates, not on these rows.

SMILES	KSHV LANA nucl	Ab BasE inh
CC(C)(C)C(=O)CS(=O)(=O)c1ccc(Cl)cc1	0.66	-1.0
O=C(C1CCCN(S(=O)(=O)N2CCCCCC2)C1)N1CCN(c2cccc(C(F)(F)F)c2)CC1 (configuration not stated)	-1.1	0.5
Cc1ccc(S(=O)(=O)N2c3ccccc3OC2c2ccc(Cl)c(Cl)c2)cc1 (configuration not stated)	x	-1.1
CN(C)/N=C/c1ccc(/C=N/N(C)C)o1	x	0.7
CCC(C)NC(=O)c1nc2c(nnn2Cc2ccccc2Cl)c(=O)[nH]1 (configuration not stated)	-0.29	-0.2
Cc1ccc(CSCC(=O)N2CCN(Cc3ccc4c(c3)OCO4)CC2)cc1	-0.62	-1.1
Cc1ccc(Cl)cc1NC(=O)c1ccc(Br)o1	0.026	0.0
O=C(Cc1ccccc1)NC1CCN(C(=O)C2CCCCC2)CC1	-0.63	1.4
CCc1cccc2c(C#N)cn(CC(=O)NCCOC)c12	2	-3.6
O=C1c2ccccc2-c2c(-c3ccccc3)nc3ccccc3c21	x	1.8
COc1ccc(-c2csc(C3=C(O)CN(CCCN4CCOCC4)C3=N)n2)cc1OC	x	4.7
CS(=O)(=O)c1ccc(-c2nnn(CC(=O)NC3CCCC3)n2)cc1	0.086	-0.2
COC(=O)C1CN(Cc2csc(NC(C)=O)n2)c2ccccc2O1 (configuration not stated)	x	2.1
CCN(CC)CC(O)Cn1c2c(c3cc(C)ccc31)CCCC2=O (configuration not stated)	0.08	-4.2
O=C(CSc1nnnn1C1CCCC1)NCc1cccs1	-0.49	-0.6
O=C(O)c1cc(N(Cc2ccccc2O)Cc2cc(O)ccc2O)ccc1O	-0.38	-0.9
O=C(NCc1ccccn1)c1cc2c(Cl)ccc3c2n1CCO3	0.4	1.9
Cc1ccc(-n2nc(C)c3c(C)cc(=O)n(CC(=O)NCc4ccco4)c32)cc1	0.66	2.6
Cc1ccc2[nH]cc(NC(=O)N(C)Cc3ccccc3)c(=O)c2c1	0.014	0.2
CC(=O)Nc1sc(C)c(C)c1C(=O)OCC(=O)N1CCOCC1	x	2.3
Cc1ccc(SC2=NS(=O)(=O)c3ccccc32)c(C)c1	x	6.9
Nc1nnc(C(F)(F)C(F)(F)C(F)(F)F)s1	0.9	-0.6
O=C(OCc1nc2ccccc2s1)C1COc2ccccc2O1 (configuration not stated)	x	-1.3
CS(=O)(=O)N1CCCc2cc(C(=O)CSc3nnc(-c4ccncc4)n3C3CC3)ccc21	x	1.0
O=C(OCCN=C1NS(=O)(=O)c2ccccc21)c1cccnc1	x	-0.7

Further records follow:
SMILES	KSHV LANA nucl	Ab BasE inh
CCCOc1ccc(Cn2c(=O)oc3ccccc32)cc1	-0.37	-0.6
CCC(C(=O)Nc1cc(C)nn1-c1nc(C)cc(C)n1)c1ccccc1 (configuration not stated)	x	-1.7
COc1ccc2c(CC(=O)NCC3CCCCC3)coc2c1	x	1.5
Nc1nc2ccc(OC(F)(F)F)cc2s1	0.16&0.27&-0.0045	-2.4&0.8
Nc1ccc(I)nc1	x	-0.2
O=C(C1=NNCC1c1ccco1)c1ccccc1 (configuration not stated)	0.95	-0.2
N#Cc1ccc(CSc2nc(O)cc(=O)n2C2CCCC2)cc1	x	1.8
NCC1CCC(C(=O)O)CC1 (configuration not stated)	0.13&-0.4&0.9	2.2&1.1
CCOC(=O)c1cc(-c2ccc(OC)c(S(=O)(=O)N3CCCCC3)c2)on1	0.8	-0.4
O=C(NCc1ccccc1F)c1ccc2c(=O)n(Cc3ccco3)c(=S)[nH]c2c1	x	0.4
CNC(=O)C12CCC(C)(c3nc4cc(C)c(C)cc4nc31)C2(C)C (configuration not stated)	-0.78	2.2
N#C/C(=C\c1cc[nH]c1)C(N)=S	x	0.7
CCC1CCCCN1C(=O)C1CC(c2cc(Cl)c(OC)cc2OC)=NO1 (configuration not stated)	0.12	-1.1
CCOc1ccc(CSc2n[nH]c(CC)n2)cc1	x	-4.0
COC(=O)c1c(C)nn(C(=O)c2ccc(C)cc2)c1-c1cc(C)on1	x	0.4
C=CCc1cccc2cc(C(=O)NC)c(=O)oc12	-0.65	0.7
O=C(Cc1cc(=O)[nH][nH]1)N/N=C/c1cccc2ccccc12	-0.21	5.4
Cc1nn(-c2ccccc2)c2c1P(=O)(N1CCOCC1)/C(=C1/N(C)c3ccccc3C1(C)C)C=N2 (configuration not stated)	x	1.8
CC1CCCC(C)N1C(=O)COC(=O)c1cc(=O)c2ccccc2o1 (configuration not stated)	x	2.4
CCCn1nc(C)cc1N	0.32	-2.2
CCOC(=O)C1=C(CN(C)C2CCCCC2)NC(=O)NC1c1cccs1 (configuration not stated)	1.7	-4.6
Cc1csc(=Nc2ccccc2F)n1/N=C/c1ccncc1	x	-3.2
CCN(C(C)=O)c1nc(CSc2n[nH]c(N)n2)cs1	x	0.5
CCCCn1c2ccccc2c2nc3ccccc3nc21	x	1.1
Cc1ccc(/C=c2\s/c(=C\C(=O)C(C)(C)C)n(CC(=O)NCc3ccco3)c2=O)s1	x	-0.5

Compound profiles, from the list above. Order of screens: KSHV LANA nucl | Ab BasE inh
Entry for CCOC(=O)C1=C(CN(C)C2CCCCC2)NC(=O)NC1c1cccs1 (configuration not stated) → 1.7 | -4.6
Entry for CCC(C)NC(=O)c1nc2c(nnn2Cc2ccccc2Cl)c(=O)[nH]1 (configuration not stated) → -0.29 | -0.2
Entry for CC(=O)Nc1sc(C)c(C)c1C(=O)OCC(=O)N1CCOCC1 → x | 2.3

Part of the list above, with values under each structure.
Results follow in this order: KSHV LANA nucl	Ab BasE inh
O=C(Cc1cc(=O)[nH][nH]1)N/N=C/c1cccc2ccccc12
→ -0.21	5.4
Cc1nn(-c2ccccc2)c2c1P(=O)(N1CCOCC1)/C(=C1/N(C)c3ccccc3C1(C)C)C=N2 (configuration not stated)
→ x	1.8
CC1CCCC(C)N1C(=O)COC(=O)c1cc(=O)c2ccccc2o1 (configuration not stated)
→ x	2.4
CCCn1nc(C)cc1N
→ 0.32	-2.2
CCOC(=O)C1=C(CN(C)C2CCCCC2)NC(=O)NC1c1cccs1 (configuration not stated)
→ 1.7	-4.6

(next part)
SMILES	KSHV LANA nucl	Ab BasE inh
Nc1c(C(=O)OCC2CCCO2)c2nc3ccccc3nc2n1-c1ccc2c(c1)OCO2 (configuration not stated)	-1	1.6
O=C(Cn1c(C(=O)NC2CCCCC2)cc2sccc21)c1ccccc1	0.49	0.9
C[N+](C)(CCO)CCn1cnc2c(N)ncnc21	0.23	1.9
COc1ccc(C(=O)Sc2ccc(C)cc2)cc1OC	-0.66	0.9
O=C(O)C1C2CCC(CC2)C1C(=O)NCc1ccccc1 (configuration not stated)	-0.59	2.7
CCS(=O)(=O)N1Cc2ccccc2CC1C(=O)OCc1ccc(C#N)cc1 (configuration not stated)	x	0.8
CCOc1ccc(N2C(=O)CC(Sc3nccc(C)n3)C2=O)cc1 (configuration not stated)	-0.67	5.7
CCS(=O)(=O)NCCc1sc(C)nc1C	2.2	-3.2
CN(CC(=O)Nc1ccc(F)cc1)C(=O)CSc1nnc2n1CCCCC2	x	-1.8
CCOC(=O)c1ccc(-c2cccc(C(F)(F)F)c2)o1	1.8	-3.4
COCCn1c(SCc2nc3ccccc3c(=O)[nH]2)nnc1-c1ccncc1	x	2.9
CN1OC(CO)CC1c1ccccc1 (configuration not stated)	-0.39	x
Cc1cc(N2CCCC2=O)c(NC(=O)C2CCCCC2)cc1NC(=O)C1CCCCC1	-0.85	1.0
CC1CC(Nc2ccccc2)c2ccccc2N1C(=O)c1ccncc1 (configuration not stated)	x	2.1
COC(=O)N/N=C\c1ccc(OC(=O)c2ccco2)cc1	-0.55	1.0
CCOc1ccc(C(=O)OCC(=O)Nc2ccc(N3CCOCC3)cc2)cc1	x	1.1
CCC/C(O)=C1\C(=O)CC(C)(C)CC1=Nc1ccncc1	-0.22	0.3
N#Cc1c(F)cccc1C(C#N)c1ccc(Cl)cc1Cl (configuration not stated)	0.67	x
O=S(=O)(c1ccccc1)c1ccc(S(=O)(=O)N2CCCCC2)s1	x	2.3
Cc1c(Cl)cccc1N1C(=O)c2cccnc2C1=O	-0.47	1.1
Cc1ccccc1Cn1ccc(NC(=O)CCSc2nc(-c3ccco3)cc(C(F)(F)F)n2)n1	-1.1	1.3
COc1ccc(OCCC(=O)Oc2ccc(OC)cc2)cc1	x	0.0
COC(=O)C1=CN(C(C(=O)OC)c2ccccc2)C=C(C(=O)OC)C1c1ccc(F)cc1 (configuration not stated)	x	0.2
CCOc1ccc(CCNC(=O)C2CCN(c3nnc(-n4cccc4)s3)CC2)cc1	-0.16	0.0
CCCOc1ccc(C(=O)Nc2nonc2C)cc1	-0.11	0.6

(next part)
SMILES	KSHV LANA nucl	Ab BasE inh
CCOc1ccc2nc(C34CC5CC(CC(C5)C3)C4)ccc2c1	x	-4.3
NC(=O)C1CCCN1Cc1nc(N)nc(Nc2ccccc2)n1 (configuration not stated)	x	0.3
CN(C)CCc1c[nH]c2ccc(C[C@H]3COC(=O)N3)cc12	0.74&0.36&0.65	3.2
COC(=O)C1C2C=CC3(CN(c4ccc(OC)cc4)C(=O)C13)O2 (configuration not stated)	-0.56	1.5
O=C(CCS(=O)(=O)Cc1ccccc1)N1CCc2ccccc21	-1	1.7
CN(C)CCCN1c2ccccc2Sc2ccc(C(F)(F)F)cc21	0.077&1.1&-0.48	-4.1&-2.4
C(=N\N1CCN(c2ccccn2)CC1)/c1ccccn1	0.14	-0.5
Cc1cc(I)ccc1N	x	-3.6
N#C/C(=C/c1ccc(-c2cc(C(=O)O)ccc2Cl)o1)C(=O)NCCc1c[nH]c2ccccc12	-0.032	31*
CSc1nnc2c(n1)OC(c1ccccc1)Nc1ccccc1-2 (configuration not stated)	x	-1.4
COc1ccc([C@@H]2CC(=O)c3c(O)cc(O[C@@H]4OC(CO[C@@H]5OC(C)[C@H](O)[C@H](O)C5O)[C@@H](O)[C@@H](O)C4O)cc3O2)cc1O (some centres not stated)	-0.014	-1.2
CC(C)CC(NC(=O)c1ccc(Cl)cc1Cl)C(=O)N1CCN(c2ncccn2)CC1 (configuration not stated)	x	2.0
CC(Nc1ccc(N2CCOCC2)cc1)C(=O)Nc1ccc(F)cc1Cl (configuration not stated)	x	-2.1
NNC(=O)c1cccs1	x	-4.4
CCCCC(=O)Nc1cc(C)c2c(=O)oc3ccccc3c2n1	-0.097	-3.8
Cc1c(N=C2SCC(=O)N2/N=C\c2ccc(Br)cc2)c(=O)n(-c2ccccc2)n1C	x	-1.7
COc1ccc(CN(Cc2ccc(C(=O)NO)cc2)S(=O)(=O)c2ccc3c(c2)OCCO3)cc1OC	0.054	-0.8
COc1ccc2c(c1)C=C(C(=O)Nc1ccccc1)CO2	-0.78	x
CCc1nc2ccc(C(=O)NCCN3CCCCC3C)cc2nc1CC (configuration not stated)	-1.5	-2.2
C=CCN1C(=O)C2(OCCCO2)c2ccccc21	0.52	2.8
N#Cc1ccc(CSc2nnc(N3CCOCC3)n2-c2ccccc2)cc1	x	1.2
COc1ccc(NC(=S)NCC(c2ccco2)N(C)C)cc1 (configuration not stated)	x	0.9
COc1cccc(NC(=O)c2ccccc2N(C)C(=O)CCC(=O)Nc2cccnc2)c1	x	-2.7
O=C(NCCN1CCOCC1)c1ccc(CS(=O)c2ccc(Br)cc2)o1 (configuration not stated)	-0.42	-0.3
C=CCOc1ccc(Cl)cc1C(=O)O	-0.094	0.0

Quoted at random: 5 compounds from above.
SMILES	KSHV LANA nucl	Ab BasE inh
COc1ccc2c(c1)C=C(C(=O)Nc1ccccc1)CO2	-0.78	x
O=C(CCS(=O)(=O)Cc1ccccc1)N1CCc2ccccc21	-1	1.7
CC(Nc1ccc(N2CCOCC2)cc1)C(=O)Nc1ccc(F)cc1Cl (configuration not stated)	x	-2.1
COc1cccc(NC(=O)c2ccccc2N(C)C(=O)CCC(=O)Nc2cccnc2)c1	x	-2.7
CN(C)CCc1c[nH]c2ccc(C[C@H]3COC(=O)N3)cc12	0.74&0.36&0.65	3.2

Other structures.
SMILES	KSHV LANA nucl	Ab BasE inh
Cn1c(CNc2cccc(C(F)(F)F)c2)n[nH]c1=S	0.55	0.4
C=CCn1c(SC(C)C(=O)N2CCCC2)nc2scc(C3CC3)c2c1=O (configuration not stated)	x	-0.6
CC(=O)Nc1ccc(N/C=C2/CCCCC2=O)cc1	-0.64	-0.6
CCCCC(=O)Nc1cccc2c1C(=O)N(c1ccccc1)C2=O	0.39	-2.7
O=C(O)c1ccc(NS(=O)(=O)c2ccc3nnn(O)c3c2)cc1	x	-2.4
N/C(CC(=O)Nc1ccccn1)=N\O	x	1.1
N=C1c2ccccc2CN1Cc1ccc(CN2Cc3ccccc3C2=N)cc1	x	-3.0
COc1ccc(OC)c(NC(=O)CSc2cn(C)c3ccccc23)c1	-0.47	1.0
CN(Cc1ccc(-c2ccc(Br)cc2)o1)C(=O)c1ccc(S(N)(=O)=O)cc1	x	-5.6
C=CCSC1=C(C#N)C(c2cccc(Cl)c2Cl)CC(=O)N1 (configuration not stated)	-0.1	0.4
CCOC(=O)Nc1ccc2c(COC(=O)c3cc(-c4ccco4)nc4ccccc34)cc(=O)oc2c1	x	3.3
CCN1CCN(Cc2ccc(NC(=O)Nc3ccc(SC)cc3)cc2)CC1	0.33	-7.8
COc1ccc(NC(=O)Cn2ccc3c(OC)cccc3c2=O)cc1	-0.42	-1.8
CCN(CC)c1ccc(/C=C2\CC/C(=C\C(C)C)C2=O)cc1	x	12
CC(C)[C@H](NC(=O)OCc1ccccc1)C(=O)N[C@H](C=O)Cc1ccccc1	-0.11	0.3
O=C1CCN(c2cc(Nc3cccc(F)c3)c3c4c(onc24)-c2ccccc2C3=O)CC1	1.6	-16
Brc1ccc(C=NC2C3CC4CC(C3)CC2C4)cc1 (configuration not stated)	x	3.4
CC(C)(C)c1ccc(=O)[nH]n1	x	-1.1
